KCNQ2 inh: KCNQ2 channel blockers in CHO-K1 cells – cell-based, FluxOR thallium flux, B-score, primary screen (AID 2156). hit rate 1.1% among 310,000. B-score at 10 µM. 20 min; hits give low values; only compounds with negative scores are shown here; some inactives read as strong as hits. O88943;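 active = fluorescence ratio B-score at most minus 3 library SDs, with starting brightness B-score within 2 library SDs, cut at about -5.5 in these data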
Target sequence (O88943 whole entry, looked up): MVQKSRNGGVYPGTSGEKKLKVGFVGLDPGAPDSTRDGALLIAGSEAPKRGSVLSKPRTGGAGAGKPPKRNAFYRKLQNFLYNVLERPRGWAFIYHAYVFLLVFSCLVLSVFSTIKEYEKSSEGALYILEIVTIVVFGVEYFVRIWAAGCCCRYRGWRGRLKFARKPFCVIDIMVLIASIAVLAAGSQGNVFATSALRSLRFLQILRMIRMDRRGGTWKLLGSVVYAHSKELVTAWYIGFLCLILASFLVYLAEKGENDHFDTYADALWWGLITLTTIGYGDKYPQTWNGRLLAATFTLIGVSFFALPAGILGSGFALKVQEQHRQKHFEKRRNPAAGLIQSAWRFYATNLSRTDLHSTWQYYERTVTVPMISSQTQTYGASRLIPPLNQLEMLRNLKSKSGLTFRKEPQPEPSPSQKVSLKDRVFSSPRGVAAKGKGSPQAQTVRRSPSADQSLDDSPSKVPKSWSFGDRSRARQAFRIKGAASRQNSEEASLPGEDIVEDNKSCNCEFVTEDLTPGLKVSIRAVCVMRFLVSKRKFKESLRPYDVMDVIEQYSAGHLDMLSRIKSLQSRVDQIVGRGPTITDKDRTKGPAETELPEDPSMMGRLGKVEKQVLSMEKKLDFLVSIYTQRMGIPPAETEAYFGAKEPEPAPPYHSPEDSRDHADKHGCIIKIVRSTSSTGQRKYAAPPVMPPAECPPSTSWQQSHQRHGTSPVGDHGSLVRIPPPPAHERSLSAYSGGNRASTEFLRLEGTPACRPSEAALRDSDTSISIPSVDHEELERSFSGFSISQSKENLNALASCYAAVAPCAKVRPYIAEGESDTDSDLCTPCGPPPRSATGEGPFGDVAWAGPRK
KCNQ2 inh baseline: second read-out of KCNQ2 inh, no call of its own (marks repeat the call); B-score; measured here: initial fluorescence intensity artifact check;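 brightness before thallium and not channel activity; 0 = typical well and far values either way flag optical interference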
The depositor's hits bear a star; i = inactive. This is a subset (hit frequency here may not be typical).

KCNQ2 inh baseline,KCNQ2 inh,SMILES
1.34,i,CC(NC(=O)CN(C)CC(=O)Nc1ccc(F)c(F)c1F)c1ccccc1 (stereo not given)
0.08,i,COc1cc(OC)c(OC)cc1CN1CCCC(C(=O)c2sccc2C)C1 (stereo not given)
0.68,i,COc1ccc(S(=O)(=O)Nc2ccc(F)c(F)c2)cc1C(=O)N1CCOCC1
0.47,i,Cc1ccc(O)c(NC(=O)CCCC(=O)O)c1
-0.48,i,CCc1ccc(Nc2n[n+](-c3ccccc3)c(/C=C/c3ccccc3)s2)cc1
1.65,i,CC(=O)NC(CC(=O)NC1CCCc2ccccc21)c1ccccc1 (stereo not given)
1.16,i,N=c1c2c3c(sc2ncn1N)CCC3
-0.74,i,CCOC(=O)C1CCN(c2nc(-c3ccccc3)nc3c2oc2ccccc23)CC1
-1.19,i,CCCC(=O)NC(=S)Nc1cccc2c(O)cccc12
2.21,i,O=C1NC(c2ccc(O)cc2)Nc2ccccc21 (stereo not given)
-1.5,i,CCOC(=O)c1ccc2c(c1)N(Cc1ccccc1C)C(=O)c1ccccc1S2=O (stereo not given)
0.72,i,CCOc1ccc2nc(C)cc(Nc3ccc4c(c3)OCCO4)c2c1
-2.05,i,Cc1ccc(C(=O)NCC(=O)NCCCc2ccccc2)s1
0.69,i,CC(NC(=O)CCc1ccccc1)c1cc2c(cc1Cl)OCCO2 (stereo not given)
-1.03,i,CCN(CC)CC(=O)n1c2c(c3ccccc31)CCCC2
0.3,i,COc1ccc2c(c1)C(=O)OC2CC(=O)O (stereo not given)
0.05,i,CCOc1ccc2c(c1)s/c(=N\S(=O)(=O)c1ccc(OC)cc1)n2C(F)F
0.33,i,COc1cccc(-c2cc(C(=O)N3C(C)CCCC3C)no2)c1 (stereo not given)
2.04,i,Cc1ccc(-c2cc(C(=O)O)c3ccccc3n2)s1
-1.41,i,O=C(O)c1ccc(Cl)c(S(=O)(=O)N2CCCC2)c1
0.28,i,Cc1cc(C)cc(N2C(=O)CCN(Cc3ccccc3)C2=O)c1
-0.18,i,Nc1nc(Br)c2c(F)cccc2c1-c1ccc(F)cc1
0.13,i,CC1CC(C)CN(C(=O)COC(=O)c2ccc[nH]c2=O)C1 (stereo not given)
-0.45,i,CSC(=NC#N)N1CCN(C(=NC#N)SC)CC1
1.96,i,COc1ccccc1NC(=O)c1c(C)nc2ccccc2c1C(=O)O

Ordered by molecular weight (lowest first): some entries from above
KCNQ2 inh baseline,KCNQ2 inh,SMILES
2.21,i,O=C1NC(c2ccc(O)cc2)Nc2ccccc21 (stereo not given)
0.13,i,CC1CC(C)CN(C(=O)COC(=O)c2ccc[nH]c2=O)C1 (stereo not given)
0.28,i,Cc1cc(C)cc(N2C(=O)CCN(Cc3ccccc3)C2=O)c1
-0.48,i,CCc1ccc(Nc2n[n+](-c3ccccc3)c(/C=C/c3ccccc3)s2)cc1

Remaining list, next part:
KCNQ2 inh baseline,KCNQ2 inh,SMILES
1.3,i,CCOc1ccc(N2C(=O)Nc3ccccc3C2(O)C(=O)NCc2ccco2)cc1 (stereo not given)
-1.51,i,Cc1ccc(OC(=O)C2CCN(C(=O)c3ccccc3C)CC2)c(Br)c1
-0.05,i,O=C(Nc1ccncc1)C1CCN(S(=O)(=O)c2ccccc2)CC1
2.01,i,CC(C)c1ccc(N2CC(C)(C)C2=O)cc1
2.66*,-6.03*,COc1ccccc1-c1cc(C(=O)N2CCCc3ccccc32)no1
1.09,i,Cc1ccc(Cn2c(=S)[nH]c3ccc(N4CCOCC4)cc3c2=O)o1
-0.71,i,CCOC(=O)C1(Cc2ccccc2)CCN(CC2CC=CCC2)CC1 (stereo not given)
-0.86,i,Cc1nc(C(=O)Nc2ccc(Cl)cc2Cl)nn1-c1cc(OC(C)C)c(Cl)cc1Cl
1.62,i,O=C1c2cc(Cl)ccc2OC2(CCNCC2)C12CC(c1ccccc1)=NO2 (stereo not given)
0.04,i,COc1ccc(OCc2nnc(SCC(=O)N3c4ccccc4Sc4ccc(Cl)cc43)o2)cc1
0.99,i,CCC1CCCCN1CC(=O)c1c(C)[nH]c2ccccc12 (stereo not given)
-0.36,i,Cc1ccc(N2CC(C(=O)Nc3nnc(SCCC4OCCO4)s3)CC2=O)cc1 (stereo not given)
-0.12*,-8.11*,O=C(O)c1cc(S(=O)(=O)Nc2ccccc2Cc2ccccc2)ccc1Cl
-0.51,i,Cc1ccccc1N1CCN(C(=O)NCc2cccc(Cl)c2)CC1
-0.15,i,CC1CC(OC(=O)CN2CCCCC2)CC(C)(C)C1 (stereo not given)
-0.03,i,O=S(=O)(Nc1ccc(OC(F)F)cc1)c1ccc(-c2ccon2)s1
1.26,i,COc1ccc(S(=O)(=O)NC2CC(=O)N(c3ccc(C)c(C)c3)C2)cc1 (stereo not given)
0.04,i,COC(=O)c1ccc(Cn2nnc3c(=O)[nH]c(C4CCCN(S(=O)(=O)c5ccccc5)C4)nc32)cc1 (stereo not given)
-0.58,i,CC(=O)/C(=N\Nc1ccc(Cl)cc1)Sc1nnc(-c2ccccc2)n1-c1ccccc1
0.69,i,CCOC(=O)C1=C(CC)OC(N)=C(C#N)C1c1cc(OC)ccc1OC (stereo not given)
1.46,i,COc1cccc(/C=N/NC(=O)c2ccc(OCc3cccc(Br)c3)cc2)c1
-0.83,i,Cc1ccc2nc(/N=C(\N)NC(=O)NC3CCCCC3)nc(C)c2c1
-1.16,i,O=C(CSc1nnnn1Cc1ccccc1)Nc1ccc2c(c1)OCCO2
-0.32,i,COc1ccc(Cl)cc1C(=O)NCCS(=O)(=O)N1CCN(c2ccccc2F)CC1
0.78,i,O=C(Nc1ccc(C(=O)O)cc1)/C(=C/c1ccc([N+](=O)[O-])cc1)NC(=O)c1ccccc1

A second format for some results above.
smiles | KCNQ2 inh baseline | KCNQ2 inh
O=C1c2cc(Cl)ccc2OC2(CCNCC2)C12CC(c1ccccc1)=NO2 (stereo not given) | 1.62 | i
COc1ccc(OCc2nnc(SCC(=O)N3c4ccccc4Sc4ccc(Cl)cc43)o2)cc1 | 0.04 | i
CCC1CCCCN1CC(=O)c1c(C)[nH]c2ccccc12 (stereo not given) | 0.99 | i
Cc1ccc(N2CC(C(=O)Nc3nnc(SCCC4OCCO4)s3)CC2=O)cc1 (stereo not given) | -0.36 | i
O=C(O)c1cc(S(=O)(=O)Nc2ccccc2Cc2ccccc2)ccc1Cl | -0.12* | -8.11*

More results
KCNQ2 inh baseline,KCNQ2 inh,SMILES
-0.75,i,c1ccc(-c2noc(CSc3nnnn3-c3ccccc3)n2)cc1
0.29,i,CC(C)CCn1c(CN2CCOCC2)nc2c1c(=O)n(C)c(=O)n2C
-0.45,i,CCOC(=O)CCSc1nc(-c2ccccc2)cc(C(F)(F)F)n1
0.5,i,COc1ccc2oc(C(=O)OCC(=O)Nc3ccccc3)c(C)c2c1
0.07,i,O=C(Nc1ccc(S(=O)(=O)Nc2nccs2)cc1)c1ccc(=O)[nH]c1
1.43,i,CCOC(=O)c1ccc(NC(=S)Nc2cccc(N)n2)cc1
2.28,i,COc1ccc(N2CCN(CCCNC(=S)Nc3c(C)cccc3C)CC2)cc1
0.56,i,COc1ccc(OCC(=O)NCc2ccc(Cl)cc2)cc1
0.51,i,C=C(C)Cn1c(COc2ccccc2)nnc1SCC(=O)O
2.61,i,Cc1cc(C)c2nc3nc(C)c(C)cc3c(N)c2c1
0.44,i,CCCCCC(=O)NC(=S)NC1C2CC3CC(C2)CC1C3 (stereo not given)
-0.03,i,CCSc1ccccc1C(=O)NCCCn1ccnc1
-0.23,i,O=C(c1cc(C(=O)N2CCCC2)cc([N+](=O)[O-])c1)N1CCCC1
5.08,i,CN(CCCCCCCCC(=O)/C=N/O)Cc1ccccc1
0.06,i,O=C(CCCn1c(=S)[nH]c2cc3c(cc2c1=O)OCO3)NCc1cccc(Cl)c1
0.1,i,N#CC1=C(N)SC(N)=C(C#N)C1c1ccc(C(F)(F)F)cc1
3.55,i,CC12CCC(C(=O)N/N=C/c3ccc(O)cc3)(OC1=O)C2(C)C (stereo not given)
-0.86,i,CCOc1ccc(CCNC(=O)COC(=O)COc2ccc(C(C)=O)cc2)cc1OCC
0.01,i,Cc1ccccc1S(=O)(=O)Oc1cccc2c(O)cccc12
0.09,i,COc1ccc(-c2nc(C)ncc2-c2csc(C)n2)c(O)c1
1.54,i,C=CCOc1ccc(CNc2nccs2)cc1OCC
3.16,i,C/C(=N/NC(=O)CNC(=O)COc1ccccc1)c1ccco1
0.81,i,COc1ccc(-c2cc3ccccc3oc2=O)cc1
3.05,i,Cc1ccn2c(NC(=O)c3ccccc3)c(-c3ccccc3)nc2c1
-0.47,i,O=C(c1ccc(Cl)cc1)C(CN1CCCC1)c1ccccc1 (stereo not given)

Gathered by group, the entries above containing a CF3 group
KCNQ2 inh baseline,KCNQ2 inh,SMILES
-0.45,i,CCOC(=O)CCSc1nc(-c2ccccc2)cc(C(F)(F)F)n1
0.1,i,N#CC1=C(N)SC(N)=C(C#N)C1c1ccc(C(F)(F)F)cc1

The list goes on:
KCNQ2 inh baseline,KCNQ2 inh,SMILES
-0.46,i,Cc1ccc(NC2c3ccccc3C(=O)N2c2cccnc2)cc1 (stereo not given)
-0.1,i,O=C(CCn1c(=O)oc2ccc(Cl)cc21)N1CCN(c2ccccc2)CC1
0.11,i,COc1ccc(C2=NN(C(=O)CSc3ncccn3)C(c3ccc(OC)cc3)C2)cc1 (stereo not given)
1.51*,-5.85*,O=C(c1nc2ccc(Cl)cn2c1CNCC[C@@H]1C[C@@H]2C=C[C@H]1C2)N1CCCCCCC1
-0.57,i,COc1ccc(C(CC(=O)Nc2ccccn2)N2Cc3ccccc3C2=O)cc1 (stereo not given)
-2.24,i,CCOC(=O)C(C)Sc1nc(-c2cccs2)ccc1C#N (stereo not given)
1.18,i,O/N=C/c1ccc2ccccc2n1
0.77,i,O=C(c1ccc2c(c1)OCO2)N1CCN=C1SCc1ccccc1
-0.36,i,Cc1cc(=O)oc2cc(OCC(=O)NCC3CCC(C(=O)O)CC3)ccc12 (stereo not given)
1.12,i,O=C(Cc1ccccc1)N1CCC2(CC1)NCCc1[nH]cnc12
0.79,i,COc1ccc(NC(=O)c2ccc(-n3nc(C)cc3C)cc2)cc1OC
0.6,i,O=C(Nc1ccnc(-c2ccncc2)n1)c1ccc(Cl)cc1
-0.11,i,Cc1ccccc1Cn1c(-c2ccc(=O)[nH]c2)nc2ccccc21
1.65,i,Cc1ccc(C(=O)N[C@H](C(=O)Nc2sccc2C(N)=O)C(C)C)cc1
-0.45,i,CC1OC(C)(C)OC1C1CNc2nc(NC(=O)C(C)(C)C)[nH]c(=O)c2N1C(=O)c1cccnc1 (stereo not given)
-0.48,i,O=c1[nH]c(CSc2cccc[n+]2[O-])nc2ccccc12
-1.05,i,CCOc1ccc2sc(NS(=O)(=O)c3ccc(OC)c(OC)c3)nc2c1
-0.51,i,COc1cccc(/C=N\NC(=O)c2ccc(C)nc2)c1
1.19,i,c1ccc(CN2CCN(Cc3c[nH]c4ccccc34)CC2)cc1
-1.71,i,CC(C)Cn1c(SCC(=O)c2c(N)n(C)c(=O)n(C)c2=O)nc2ccccc21
-0.32,i,O=C(Nc1cccn(Cc2ccccc2Cl)c1=O)NC1CCCCC1
-0.67,i,COCCNC(=S)N(CCc1c(C)[nH]c2ccc(F)cc12)Cc1ccc(C)cc1
-1.73*,-5.73*,Cc1cc(C)c(S(=O)(=O)/N=C2\C=C(NS(=O)(=O)c3ccccc3)C(=O)c3ccccc32)c(C)c1
-1*,-7.73*,CC(Oc1ccc(F)cc1)C(=O)Nc1ccccc1N1CCCCC1 (stereo not given)
-0.87,i,Cc1cccc2cc(CN(Cc3nnnn3Cc3ccco3)C3CCCC3)c3nnnn3c12

At a glance, part of the list above:
KCNQ2 inh baseline,KCNQ2 inh,SMILES
-1.73*,-5.73*,Cc1cc(C)c(S(=O)(=O)/N=C2\C=C(NS(=O)(=O)c3ccccc3)C(=O)c3ccccc32)c(C)c1
-1*,-7.73*,CC(Oc1ccc(F)cc1)C(=O)Nc1ccccc1N1CCCCC1 (stereo not given)
-0.87,i,Cc1cccc2cc(CN(Cc3nnnn3Cc3ccco3)C3CCCC3)c3nnnn3c12

Carrying on:
KCNQ2 inh baseline,KCNQ2 inh,SMILES
-0.67,i,CC(C)CCn1c(NCCc2ccccc2)nc2c1c(=O)n(C)c(=O)n2C
-1.32,i,Cc1cccc(C)c1NC(=O)COC(=O)Cc1ccsc1
0.05,i,CCCC(C(=O)NC1CCCCC1)N(CC1CCCO1)C(=O)CNS(=O)(=O)c1ccc(F)cc1 (stereo not given)
-2.04,i,CC(=O)c1ccc(N2CCN(S(=O)(=O)c3ccc(-c4cc(C)no4)s3)CC2)cc1
-0.99,i,CCCCOC(=O)c1ccc(NC(=O)c2cc(Cl)ccc2OC)cc1
-1.91,i,COc1ccc(S(=O)(=O)N2CCCN(S(=O)(=O)c3ccc(OC)c(C)c3)CC2)cc1C
1.17,i,Cc1ccc2cc(C#N)c(NCCCNC(=O)C3CCCO3)nc2c1 (stereo not given)
2.2,i,Cc1ccccc1-c1nc(CS(=O)CC(=O)NC2CCCC2)c(C)o1 (stereo not given)
0.04,i,Oc1ccc(Br)cc1CN1CCCCCCC1
1.07,i,Nc1c(CO)nnn1-c1ccccc1
0.61,i,CCN(CC)S(=O)(=O)c1ccc(OCC(=O)NC2CCS(=O)(=O)C2)c([N+](=O)[O-])c1 (stereo not given)
-0.13,i,CC1=CCC2C(=O)N(c3ccc(OC(=O)c4ccco4)cc3)C(=O)C2C1 (stereo not given)
0.04,i,O=C(Cc1ccc(Cl)cc1Cl)Nc1ccc(OC(F)F)c(Cl)c1
0.5,i,CCc1nnc(NS(=O)(=O)c2ccc(NC(=S)NC(=O)/C=C/c3cccs3)cc2)s1
-0.04,i,CCCc1noc2c1/C(=N\O)CC(c1ccccc1)C2 (stereo not given)
1.38,i,COc1ccc(C(=O)NC(=S)NNC(=O)CCc2ccccc2)cc1
0.84,i,O=C(COc1ccc(Cl)cc1Cl)NNC(=S)Nc1ccc(F)cc1
0.55,i,COc1ccc(C(=O)Nc2ccc(F)cc2F)cc1
-0.3,i,O=C1OCC(c2ccc(Cl)s2)=C1c1ccccc1[N+](=O)[O-]
-0.93,i,Cc1cccc(C(=O)NNC(=O)C2CCN(C(=O)OC(C)(C)C)CC2)c1
1.19,i,COc1ccc(C(NC(C)=O)c2cc(Cl)c3cccnc3c2O)cc1OC (stereo not given)

Screening data from PubChem BioAssay.
